# Source: PubChem (National Center for Advancing Translational Sciences (NCATS))
# VDR inh: vitamin D3 receptor (human) inhibition; P11473; VDR-SRC2-3 peptide fluorescence polarization, 2 h; Potency, µM, without a hit: max response, negative = inhibition, hits mostly inhibitors; 400,000 tested, 0.93% active; AID 504847; active = well fitted inhibition curve with a large enough effect; inconclusive = small, poorly fitted or top-dose-only effect, or another doubt; inactive = no such curve, though single readings can be large or run the other way; also: series mostly up to about 120 µM
# Target sequence (P11473 whole entry, looked up): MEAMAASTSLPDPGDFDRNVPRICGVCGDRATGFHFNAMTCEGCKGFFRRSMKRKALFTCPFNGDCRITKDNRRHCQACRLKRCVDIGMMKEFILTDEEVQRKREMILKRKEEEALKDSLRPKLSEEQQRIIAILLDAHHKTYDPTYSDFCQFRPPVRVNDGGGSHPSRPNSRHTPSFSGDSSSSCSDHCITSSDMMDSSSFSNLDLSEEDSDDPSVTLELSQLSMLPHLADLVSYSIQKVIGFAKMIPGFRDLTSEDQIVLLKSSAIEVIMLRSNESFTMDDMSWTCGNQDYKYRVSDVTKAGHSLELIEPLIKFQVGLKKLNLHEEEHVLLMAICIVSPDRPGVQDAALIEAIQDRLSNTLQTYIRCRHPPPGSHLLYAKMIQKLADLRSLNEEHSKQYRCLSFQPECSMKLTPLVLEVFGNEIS
#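 Inhibition of the VDR/SRC2-3 peptide interaction is quantified by fluorescence polarization. Compounds (23 nl, pintool) incubate with the reagents for 2 hours at ambient room temperature.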
# Active calls of the source: *; u = inconclusive. % is scaled to controls: 0 for no effect and ±100 for the full control effect; potency is read from the fitted curve at half-maximal effect.
Molecule,VDR inh
Nc1c(Cl)cc(-c2csc(N3CCCC3c3nc4cc(Cl)c(Cl)cc4n3CCCO)n2)cc1Cl (stereo not given),-7%
O=c1c(Cl)c(N2CCN(c3ccccc3)CC2)cnn1C12CC3CC(CC(C3)C1)C2,-16%
Cc1noc(C)c1-c1nccc(N2CCOCC2)n1,-3%
CSc1nc2ccccc2n1CC(=O)Nc1ccc(C)c(C)c1,-12%
CCOC(=O)CCCNC(=O)c1cncc(O)c1,-2%
NC(=O)c1ccc(NC(=O)CNC(c2ccccc2)c2ccccc2)cc1,-13%
CCOC(=O)c1noc2ncn(CC(=O)Nc3cccc(Cl)c3)c(=O)c12,4%
C/C(=N/NC(=O)c1cc(C(C)C)[nH]n1)c1cccs1,-17%
CN(CC(=O)Nc1ccc(Cl)c(C(F)(F)F)c1)C(=O)c1ccc(OCC2CCCO2)cc1 (stereo not given),7%
NC(=O)c1ccsc1NC(=O)CSc1nncs1,4%
COc1ccccc1CNC(=O)CSc1ccc(-c2ccncc2)nn1,-12%
CN1/C(=C\C(=O)Nc2cccc(Cl)c2)C(C)(C)c2ccccc21,19%
CCOc1ccccc1NC(=O)CCc1c(C)nn(-c2ccc(N3CCOCC3)nn2)c1C,1%
COc1ccc(/C(C)=N/NC(=O)c2cc(C)[nH]n2)c(OC)c1,21%
O=C(C1CC1)N1N=C(c2ccc(Cl)cc2)CC1(O)C(F)(F)F (stereo not given),-2%
CN1C(=O)N(CC(=O)N2CCN(S(=O)(=O)Cc3ccccc3)CC2)C(=O)C12CCCCC2,-5%
Cc1ccccc1-c1nc(NC2CC2)c2ccccc2n1,-19%
Nc1cc(-c2cccc([N+](=O)[O-])c2)[nH]n1,-9%
CCOC(=O)c1ccccc1NC(=O)N1CCN(Cc2cc(=O)n3nc(-c4ccccc4)sc3n2)CC1,10%
COc1ccc(NC(=O)c2cccc3c2C(=O)c2ccc(-c4ccc(F)cc4OCc4ccccc4)cc2S3(=O)=O)cc1,-14%
O=C(CC(=O)c1ccccc1)Nc1cc([N+](=O)[O-])ccc1Cl,7%
Cc1ccc(-c2cc(C(=O)OCC(=O)N(C)C3CCS(=O)(=O)C3)c3ccccc3n2)o1 (stereo not given),-20%
CCCc1sc(N/N=C/c2ccccn2)nc1-c1ccc(Br)cc1,-4%
COc1ccc2c(c1)[C@H]1[C@H](CO2)[C@H](c2ccccc2)[C@]2(C)C(=O)Nc3ccc(Cl)cc3C(=O)N12,-10%
COCc1cc(C)n(CC(=O)Nc2ccc(NC(C)=O)cc2)c(=O)c1C#N,0%

# The listing continues.
Molecule,VDR inh
CCO[C@@H]1OC(C(=O)NCc2ccccc2)=C[C@H](c2ccc3c(c2)OCO3)[C@H]1CCCO,-9%
COCCNC(=O)C(c1ccc(Cl)cc1)N(CCOC)C(=O)CCC(=O)Nc1nccs1 (stereo not given),-16%
COCCn1c(=O)c(-c2cc(F)cc(F)c2)nc2cnc(N3CCNCC3)nc21,-12%
COc1cc(C(=O)N2CCN(CCc3ccccn3)CC2)cc(OC)c1OC,8%
CCn1cc(C(=O)NCCC(=O)NCCO)c(=O)c2cc3c(cc21)OCO3,14%
COc1ccc(C(=O)/C=C/c2cn(CN3CCN(C)CC3)c3ccccc23)cc1,-9%
O=C(NC1CC2CCC(C1)N2Cc1ccco1)c1ccccc1 (stereo not given),15%
CCOC(=O)N1CCN(c2ncnc3nc[nH]c23)CC1,9%
CC(=O)CSc1ccc(C(=O)O)cn1,-20%
CN(C)C1=NC[C@H](Cc2ccccc2)N1CC1CCCC1,-28%
CCSc1nnc([C@@H](NC(=O)OC(C)(C)C)C(C)C)o1,10%
O=C(CNC(=S)NC(=O)c1ccccc1Br)c1ccccc1,-17%
CCCc1nc2c(nnn2Cc2ccccc2Cl)c(=O)[nH]1,-9%
CC(c1ccco1)N(C(=O)COc1ccc(Cl)cc1)c1ccccn1 (stereo not given),-8%
O=C(Cc1nn[nH]n1)NCCC1=CCCCC1,26%
CC(C)C(NS(=O)(=O)c1ccccc1)C(=O)N1CCN(C(=O)c2ccco2)CC1 (stereo not given),-17%
Cc1ccccc1NC(=S)NCc1cccs1,4%
CC(C)NS(=O)(=O)c1ccc(OCC(=O)N2CCCC2)cc1,13%
CCOc1ccc(/C=C2/Sc3ccc(C(=O)NCC4CCCO4)cc3N(C)C2=O)cc1OC (stereo not given),-18%
O=C(Cc1ccccc1)Nn1cnc2ccccc21,4%
Cc1c(C(=O)Nc2cccc(Cl)c2)oc2ccc(S(=O)(=O)N3CCOCC3)cc12,-10%
CC(c1ccccc1)n1c(-c2ccccc2F)n[nH]c1=S (stereo not given),14%
O=c1c2ccccc2ncn1CCCSc1ccc(Cl)cc1,4%
C[C@H](CO)N1C[C@H](C)[C@@H](CN(C)CC2CCCCC2)Oc2c(NC(=O)C3CC3)cccc2C1=O,0%
CCCCn1c(N2CCCC2)nc2c1c(=O)[nH]c(=O)n2C,3%

# Next section:
Molecule,VDR inh
Cc1ccc(-n2nc(C(=O)N/N=C/c3cccc(C(F)(F)F)c3)c3ccccc3c2=O)cc1C,4%
COc1ccc(CCNC(=O)CC(C)(C)CC2=NS(=O)(=O)c3ccccc3N2)cc1OC,-20%
O=C(Cn1nnc2ccccc21)C1CC1,8%
CC(=O)Nc1cc2c(cc1[N+](=O)[O-])OCCO2,-24%
CC(C)C[C@@H](CNCC(=O)[C@H](CC(C)C)NC(=O)c1[nH]cnc1C(=O)N[C@@H](C)CN)NC(=O)c1nc[nH]c1C(=O)N[C@@H](Cc1ccccc1)C(=O)O,-15%
COc1cc(NC(=O)c2cccnc2SC)cc(OC)c1OC,-4%
O=C(CN1CCC(O)(c2ccc3c(c2)OCO3)CC1)NC1CCCCC1,-2%
COc1cc(C(=O)NNC(=O)Cc2ccc(S(=O)(=O)N3CCOCC3)s2)cc(OC)c1OC,-26%
C[C@@H](NC(=O)C1(c2ccccc2)CCN(C(=O)OC(C)(C)C)CC1)C(=O)N[C@@H](Cc1ccccc1)C(=O)O,u
CC(C)OCCCn1c(=NC(=O)c2ccncc2)c(C#N)cc2c(=O)n3ccccc3nc21,5%
CCOc1ccc(-c2cc(C(=O)NCCc3ccccc3)c3c(-c4ccc(C)cc4)[nH]nc3n2)cc1,-9%
CSc1ccc(CNc2cccc3ccccc23)cc1,0%
Cc1ccc(NC2=NC(c3ccc(O)cc3)n3c(nc(C)cc3=O)N2)cc1 (stereo not given),15%
Cc1cccc(N2CCN(S(=O)(=O)c3c(C)[nH]c(C)c3C(=O)N3CCCC3)CC2)c1C,15%
CCOC(=O)[C@@H]1[C@H]2COc3ccccc3[C@H]2N2C(=O)N(c3cccc(Cl)c3)C(=O)[C@]12C,-27%
CC(=O)Nc1sc2c(c1-c1nc3ccccc3s1)CCN(C(C)C)C2,-3%
Cc1nn(S(=O)(=O)c2cccs2)c(C)c1Sc1ccc([N+](=O)[O-])cc1,-5%
CCOC(=O)C1CCN(c2c(C(=O)c3ccc(OC)cc3)cnc3ccccc23)CC1,-14%
CCCn1cc(CN2CCC(N3CCC(C(=O)N4CCOCC4)CC3)CC2)c(C)n1,8%
COc1ccc(-n2cnc(=S)[nH]c2=S)cc1,28µM*
NC(=O)c1ccc(NC(=O)COC(=O)c2ccc3c(c2)OCCO3)cc1,17%
O=C(c1ccccc1)C(Nc1cccc([N+](=O)[O-])c1)c1ccccc1 (stereo not given),2%
C[N+](C)(C)CCCN(Cc1ccc2c(c1)OCO2)C(=O)NC1CCCCC1,5%
COc1ccc(/C(C)=N\O)cc1OC,13%
Cc1ccc(NC(=O)Cn2cc(C(=O)C3CCCCC3)c3ccccc32)c(C)c1,15%

# Rewritten as labelled records: entries from further up
COc1ccc(/C(C)=N\O)cc1OC
  VDR inh = 13%
Cc1ccc(NC(=O)Cn2cc(C(=O)C3CCCCC3)c3ccccc32)c(C)c1
  VDR inh = 15%

# More compounds:
Molecule,VDR inh
O=C(OCC(=O)N1CCc2ccccc2C1)c1ccc(F)cc1Cl,-16%
O=C(Cn1cc(C(=O)c2ccco2)c2ccccc21)Nc1ccccc1Cl,0%
CCc1ccc(C2C(C#N)=C(N)SC(N)=C2C#N)s1,u
CNc1nc(-c2ccoc2)nc2ccccc12,u
CC(C)c1ccc(NC(=O)CN2C(=O)NC3(CCCC3)C2=O)cc1,-6%
COC(=O)CN(c1ccccc1F)S(=O)(=O)c1ccc(C)cc1,6%
Cn1c(C(=O)NCCCN2CCN(c3cccc(Cl)c3)CC2)cc2c(=O)n(C)c3ccccc3c21,4%
CC1(c2ccc(Cl)cc2Cl)NC(=O)N(CC(=O)N2CCN(C(=O)c3ccco3)CC2)C1=O (stereo not given),-21%
COc1ccc(Nc2cc(C)c3cc(NC(=O)COc4cccc(C)c4)ccc3n2)cc1,20%
COc1ccc(C(=O)NCCCc2nc3ccccc3n2Cc2ccccc2C)cc1OC,-7%
COc1ccc(NC(=O)CN2CCc3ccccc3C2)cc1S(=O)(=O)N1CCOCC1,2%
COc1ccccc1NC(=O)C1=C(C)Nc2ncnn2C1c1cccs1 (stereo not given),3%
O=C(c1ccco1)N1CCC2(CC1)CCN(c1cccc(-c3ccccc3)c1)CC2,u
O=C(COC(=O)Cc1ccc(Cl)cc1Cl)Nc1ccc(OC(F)F)cc1,-6%
CCc1nn2c(=O)cc(COC(=O)c3ccco3)nc2s1,7%
Cc1ccc(-c2nc3cccc(C)n3c2Nc2ccc3c(c2)OCO3)o1,-1%
CN(C)c1ccc(NC(=O)COC(=O)CNC(=O)c2cccs2)cc1,u
COc1ccc(CNC(=O)c2ccc3c(c2)NC(=O)C(CS(=O)(=O)Cc2ccccc2Cl)N3)cc1 (stereo not given),5%
Cc1ccnc(NC(=O)Cc2c(F)cccc2Cl)c1,-16%
Cc1cc(C)n(C(C)CC(=O)Nc2ccc(-c3ccno3)cc2)n1 (stereo not given),-14%
Cc1ccccc1-c1ccc2ncnc(NCc3cccnc3)c2c1,u
CC(C)C(=O)N(Cc1ccc(F)cc1)Cc1nc2ccccc2c(=O)[nH]1,-8%
Cc1cccc2sc(N(Cc3cccnc3)C(=O)c3cccs3)nc12,24%
COCCNC(=S)Nc1cc(S(=O)(=O)N2CCOCC2)ccc1N1CCCCC1,35µM*
C=CCN(C(=O)c1csnn1)C(C(=O)NC1CCCC1)c1c(F)cccc1Cl (stereo not given),-8%

# Next records
Molecule,VDR inh
CC(NC(=O)Nc1ccc(F)cc1F)c1ccncc1 (stereo not given),16%
CC/C(C)=N/Nc1nc2sc3c(c2c(=O)[nH]1)CC(C)(C)OC3,14%
Fc1ccccc1-c1n[nH]c(=S)n1CC1CCCO1 (stereo not given),-21%
CC1CN(S(=O)(=O)c2ccc(C(=O)NN3CCN(C)CC3)cc2)CC(C)O1 (stereo not given),9%
Fc1ccc(N2CCN(c3ncnc4nc[nH]c34)CC2)cc1,0%
Cc1cc(OC(C)C)nc(NCc2ccccc2)n1,10%
Cc1ccc(Cl)cc1N1CCN(C(=O)Cc2c(C(=O)O)c(C)cn2C)CC1,-1%
COC(=O)c1ccccc1NC(=S)NC(=O)c1ccc2c(c1)OCO2,u
CSc1cccc(CN2CCN(CCC(C)C)C(CCO)C2)c1 (stereo not given),2%
CC(C)CCNC(=O)c1onc(CSc2ccc(F)cc2)c1C(=O)NCCC(C)C,-4%
CC(C)[C@H](NC(=O)OCc1ccccc1)C(=O)OCC(=O)NC1CCCCC1,10%
COc1cc(/C=N/n2c(-c3n[nH]c4c3CCC4)n[nH]c2=S)ccc1O,-2%
O=C(COC(=O)c1cc[n+]([O-])cc1)Nc1cccc(F)c1,-2%
Cc1cc(CNCc2cn(C)nc2-c2ccc(Oc3ccccc3)cc2)on1,-11%
CC1=NOC(=O)/C1=C/c1ccc(O)cc1,u
CN(C)C(=O)c1ccc2c3c(cccc13)CC2,-7%
CS(=O)(=O)N(CC(=O)N1CCN(Cc2ccccc2)CC1)C1CCCCC1,-1%
CCOc1ccc(Oc2ccccc2NC(=O)CCNC(C)=O)cc1,-18%
Cc1cccc(NC(=O)CS(=O)(=O)c2cn(C)c3ccccc23)c1,-12%
Cc1ccc([C@H]2C(C(=O)O)=CC[C@@H](c3ccc(C)cc3)N2S(=O)(=O)c2ccc(C)cc2)cc1,-22%
Cc1cc(C(=O)Nc2cccc3ncccc23)no1,14%
Cc1ccc(Sc2ccc(NC(=O)c3ccc(S(C)(=O)=O)cc3Cl)cc2)cc1,3%
Cc1ccc(NC(=O)CN(C)C(=O)C(c2ccccc2)c2ccccc2)cc1,2%
CC(=O)Oc1ccc2ccccc2c1C(NC(=O)Cc1ccccc1)c1ccc(Cl)cc1 (stereo not given),4%
CCOc1ccc(CCNC(=O)C2COc3ccccc3C2)cc1OCC (stereo not given),16%
Cc1cccnc1NC(=O)C1CCN(S(=O)(=O)c2c(C)noc2/C=C/c2ccco2)CC1,7%
CCN(CC(=O)NC1CCS(=O)(=O)C1)c1ccc([N+](=O)[O-])cc1C#N (stereo not given),18%
Cc1ccc(S(=O)(=O)N(C)c2ccc(C(=O)O)cc2)cc1,0%

# Looked up above:
# For VDR inh, COCc1cc(C)n(CC(=O)Nc2ccc(NC(C)=O)cc2)c(=O)c1C#N has 0%
# For VDR inh, COc1cc(/C=N/n2c(-c3n[nH]c4c3CCC4)n[nH]c2=S)ccc1O has -2%
# For VDR inh, COc1cc(NC(=O)c2cccnc2SC)cc(OC)c1OC has -4%
# For VDR inh, CCO[C@@H]1OC(C(=O)NCc2ccccc2)=C[C@H](c2ccc3c(c2)OCO3)[C@H]1CCCO has -9%
# For VDR inh, CC(C)OCCCn1c(=NC(=O)c2ccncc2)c(C#N)cc2c(=O)n3ccccc3nc21 has 5%
# For VDR inh, C[C@H](CO)N1C[C@H](C)[C@@H](CN(C)CC2CCCCC2)Oc2c(NC(=O)C3CC3)cccc2C1=O has 0%
# For VDR inh, Cc1ccc([C@H]2C(C(=O)O)=CC[C@@H](c3ccc(C)cc3)N2S(=O)(=O)c2ccc(C)cc2)cc1 has -22%

# The list is partial; rates above refer to the full screens.
